Cruzain Triton – blocks cruzain activity in presence of Triton detergent; P25779; purified cruzain, Z-FR-AMC fluorescence, 0.01% Triton; Potency, µM, for inactives: max response, negative = inhibition, actives largely listed as inhibitors; 0.43% of 200,000 active; AID 1478;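 note: plate controls were neutral wells for no effect and buffer without enzyme for full effect; nearly all actives have a fitted effect of over 40% in size; top concentration of the series not given in the record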
Target sequence (P25779 123-467 limits assumed): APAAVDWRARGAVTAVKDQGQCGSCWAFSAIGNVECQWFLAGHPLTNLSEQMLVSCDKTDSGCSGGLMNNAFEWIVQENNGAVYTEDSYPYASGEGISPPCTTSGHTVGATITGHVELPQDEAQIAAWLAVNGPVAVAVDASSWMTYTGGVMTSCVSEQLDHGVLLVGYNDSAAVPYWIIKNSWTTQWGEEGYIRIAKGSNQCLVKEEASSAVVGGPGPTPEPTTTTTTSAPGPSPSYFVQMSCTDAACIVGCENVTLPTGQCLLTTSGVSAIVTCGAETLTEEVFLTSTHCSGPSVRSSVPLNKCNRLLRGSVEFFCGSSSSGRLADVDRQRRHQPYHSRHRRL
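Sodium acetate buffer (100 mM, pH 5.5) containing 5 mM DTT and 0.01% Triton X-100 hosted 1.5 nM cruzain and test compound for 15 min at room temperature. Cleavage of 2 uM Z-FR-AMC was then tracked by fluorescence.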
SARS PLpro yeast – inhibitors of SARS-CoV papain-like protease in yeast; S. cerevisiae expressing SARS-CoV PLpro, growth rescue; control for the full effect not named in the record; Potency, µM (titrated, usually from 32.9 µM), for the others: top-dose activity, positive = growth rescue; 0.19% of 330,000 active; AID 485353; active means well fitted rising curve with a large enough effect; inconclusive means small, poorly fitted or top-dose-only effect; inactive means no such curve, though single readings can be large or run the other way; note: 0% is about no effect; nearly all actives have a fitted effect of over 55% in size; growth read by luminescence after 48 h
2A StopGo – FMDV 2A StopGo reporter, luciferase signal | 1.2% of 410,000 active | AID 1159524 | Potency, µM (titrated, usually from 57.9 µM), for the others: top-dose signal change, negative = less light | human cells with a luciferase reporter of 2A StopGo recoding; control for the full effect not named in the record; active = well fitted falling curve with a large enough effect; inconclusive = small, poorly fitted or top-dose-only effect; inactive = no such curve, though single readings can be large or run the other way; tested in HEK293T cells; note: % is set by controls: 0 for no effect and ±100 for the full control effect; nearly all actives have a fitted effect of over 45% in size; luciferase light after 4 h
LASV entry inh – inhibitors of Lassa virus binding or cell entry; Lassa virus pseudotype entry inhibition, cell reporter; control for the full effect not named in the record; Potency, µM (doses to about 37.9 µM), for the others: at the top dose activity change, negative = inhibition, hits mostly inhibitors; 1.2% of 300,000 active; active means well fitted inhibition curve with a large enough effect; inconclusive means small, poorly fitted or top-dose-only effect, or effect the other way; inactive means flat fitted curve, though single readings scatter; tested in HEK293 cells; note: % is set by controls: 0 for no effect and ±100 for the full control effect; nearly all actives have a fitted effect of over 50% in size; luciferase read-out
NS1 inh – blocks influenza NS1 protein function | S. cerevisiae slowed by influenza A NS1, growth recovery by OD600 | Potency, µM (titrated, usually from 46.1 µM), inactives show top-dose activity, positive = more growth | 0.4% of 270,000 active; active means well fitted rising curve with a large enough effect; inconclusive means small, poorly fitted or top-dose-only effect; inactive means no such curve, though single readings can be large or run the other way; note: nearly all actives have a fitted effect of over 50% in size
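Recovery from NS1-induced slow growth read by OD600 in budding yeast switched to galactose assay medium (pH 6.0, -URA) at 1:100 dilution. Compound 23 nl per well; the matching strain lacking NS1 serves as control.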
Marburg entry inh – Marburg virus entry inhibition; Marburg virus pseudotyped entry inhibition, cell reporter; control for the full effect not named in the record; about a third of the inactives were read at about 46 µM; Potency, µM (top dose mostly 37.8 µM), for inactives: at the top dose activity change, negative = inhibition, actives largely listed as inhibitors; 1.8% of 300,000 active; AID 540276; active = well fitted inhibition curve with a large enough effect; inconclusive = small, poorly fitted or top-dose-only effect, or effect the other way; inactive = flat fitted curve, though single readings scatter; tested in HEK293 cells; about a fifth of its hits are not listed in these tables; note: % is set by controls: 0 for no effect and ±100 for the full control effect; luciferase read-out
Cruzain inh noDet – cruzain (T. cruzi) inhibition without detergent | P25779 | purified cruzain, Z-FR-AMC fluorescence, no detergent | Potency, µM, for the others: max response, negative = inhibition, usual class: inhibitors | 2.3% of 200,000 active | AID 1476;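 note: plate controls were enzyme without inhibitor for no effect and buffer without enzyme for full effect; nearly all actives have a fitted effect of over 40% in size; top concentration of the series not given in the record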
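Detergent-free condition (0.00005% Triton X-100) in acetate buffer pH 5.5 with DTT. 1.5 nM enzyme and compound were pre-mixed 15 min, then 2 uM Z-FR-AMC substrate added; reaction progress from fluorescence change between first and third reads (60 s).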
RE007 growth inh – less growth of the S. pombe RE007 Vpr strain | Potency, µM (series often up to 92.2 µM), for the others: at the highest dose activity change, negative = less growth | S. pombe RE007 Vpr strain, BacTiter-Glo ATP luminescence, 24 h; control for the full effect not named in the record | 0.21% of 360,000 active | AID 651644; active = well fitted falling curve with a large enough effect; inconclusive = small, poorly fitted or top-dose-only effect; inactive = no such curve, though single readings can be large or run the other way;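 note: % is set by controls: 0 for no effect and ±100 for the full control effect; nearly all actives have a fitted effect of over 50% in size; the assay follows cell death caused by Vpr and the record does not say whether a fall means rescue or toxicity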
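Fission yeast strain RE007, carrying one chromosomally integrated HIV-1 vpr copy, was seeded at OD 0.01 in PMG+AL medium with 23 nL pinned compound. After 24 h at 30 °C and 99% humidity, viability was read by BacTiter-Glo luminescence.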
Starred values were filed as active, the others as inactive; ? = inconclusive; / = not tested or not shown; & = joins results of further samples; [ ] = remark or other dose. Unless noted, calls come from the whole dose curve; as a rule, active = well fitted curve in the direction sought with a large enough effect; inconclusive = small, poorly fitted or top-dose-only effect, or another doubt; inactive = no such curve, though single readings can be large; an effect the other way counts as inactive or inconclusive. Potency is the fitted concentration of half-maximal effect.

SMILES	Cruzain Triton	SARS PLpro yeast	2A StopGo	LASV entry inh	NS1 inh	Marburg entry inh	Cruzain inh noDet	RE007 growth inh
CCN(CC)S(=O)(=O)c1ccc2[nH]cc(C(=O)NCCN3CCCCCC3)c(=O)c2c1	1.2%	-2%	-3%	?	15%	-12%	-10%	-7%
Cc1noc(C)c1C(=O)N1CCN(Cc2ccccc2)CC1	1.9%	-4%	-8%	11%	2%	24%[46.1 µM]	3%	2%
CC(=O)Nc1ccc(S(=O)(=O)Oc2ccccc2N2C(=O)C3C4CCC(C4)C3C2=O)cc1 (configuration not stated)	/	9%	-23%	2.8µM*	2%	10µM*	/	-9%
NNC(=O)c1cccn(Cc2ccc(Cl)cc2Cl)c1=O	/	0%	-28%	2%[46.1 µM]	1%	19%[46.1 µM]	/	6%
Cn1ncc(Br)c1C(=O)OCC(=O)Nc1nc(-c2ccccc2)cs1	-4.4%	-6%	39%[activator]	5%	6%	11%	-22%	-14%
O=C(Nc1cccc(Cl)c1)c1cc(F)cc2c1OCOC2	/	-2%	-8%	16%	2%	-4%[46.1 µM]	/	-1%
CCOc1ccc(N2C(=O)CC(N(CCc3ccc(OC)c(OC)c3)C(=S)Nc3ccccc3)C2=O)cc1 (configuration not stated)	1.1%	?	-9%	?	?	?	?	8%
CCN(CC)CCn1c2c(c(SCC(=O)Nc3cc(C)on3)nc1=O)CCCC2	/	0%	1%	8%	/	-4%	/	2%
Cc1ccc2c(Cl)c(C(=O)Nc3cc(C)on3)sc2c1	1.3%	11%	49%[activator]	7%	-4%	?	-10%	9%
COc1ccc(-c2cc(C(=O)Nc3nc4c(C)cccc4s3)c3ccccc3n2)cc1OC	2.6%	-3%	-20%	2%	11µM*	-14%	2%	17%
O=C(CCn1nc(-c2ccc(Cl)cc2)c2ccccc2c1=O)NCCN1CCOCC1	3.2%	2%	3%	?	-2%	3%[46.1 µM]	-3%	-17%
COc1cccc(CNC(=O)CCc2c(C)c3cc4c(C)c(C)oc4cc3oc2=O)c1	-0.5%	/	12%	-2%[46.1 µM]	/	10%[46.1 µM]	-1%	/
O=C(Nc1ccc(Oc2ncnc3cc(Cl)ccc23)nc1)c1ccc(F)cc1	/	0%	4%	?	6%	26%	/	10%
C/C(Cn1nnc2ccccc21)=N\OC(=O)c1cc(F)c(F)cc1Cl	/	-1%	-22%	13%	1%	14%	/	11%
CCN(C(=O)Cc1c(C(=O)O)n(C)c2ccccc12)c1cccc(C)c1	/	0%	-15%	/	1%	/	/	11%
Cc1cc(-c2nnc(CCC(=O)N3CCN(Cc4cccnc4)CC3)o2)c(C)o1	/	1%	-7%	-2%	3%	11%[46.1 µM]	/	8%
CCN(CC)S(=O)(=O)c1cccc(NC(=O)c2ccc(C#N)cc2)c1	/	1%	?	?	/	?	/	2%
Cc1cc(NC(=O)c2ccc3nc(-c4ccccc4)c(-c4ccccc4)nc3c2)no1	-4.9%	-6%	7%	-40%[14.3 µM]	-14%	?	-21%	4%
COc1ccc(-c2csc(N3CCC(c4ccccc4)C3)n2)cc1 (configuration not stated)	1.9%	-2%	57%[activator]	?	?	-1%	-6%	2%
Nc1nc(CCl)nc(Nc2cccc3ccccc23)n1	/	0%	?	/	7%	/	/	-10%
O=C(CSc1nc2c(c(=O)[nH]1)CN(Cc1ccc(F)cc1)CC2)Nc1ccc(F)cc1	-1.4%	-7%	-29%	-18%	8%	-10%	10%	1%
Cc1cccc(OCc2nnc(SCc3cc(=O)n4cc(Br)ccc4n3)o2)c1	-6.0%	-3%	-26%	-10%	-11%	-24%&-24%	-6%	-14%
Cc1ccc(-n2nc3c(=O)n(CC(=O)Nc4ccccc4F)nc(C)c3c2C)c(C)c1	-3.9%	/	?	-6%[46.1 µM]	/	-16%[46.1 µM]	12%	/
COc1ccc(-c2noc(-c3ccccc3F)n2)cc1	-9.4%	3%	0%	/	-55%	/	-2%	-9%
COCCN(C(=O)COC(=O)c1c(NC(C)=O)sc(C)c1C)c1c(N)n(Cc2ccccc2)c(=O)[nH]c1=O	/	-4%	-21%	-9%	/	-10%	/	-14%
SMILES	Cruzain Triton	SARS PLpro yeast	2A StopGo	LASV entry inh	NS1 inh	Marburg entry inh	Cruzain inh noDet	RE007 growth inh
CCC(C)[C@H](NS(=O)(=O)c1ccc(C)cc1)C(=O)N1CCC(C(=O)N[C@H](C(=O)O)c2ccccc2)CC1 (some centres not stated)	/	-1%	-15%	/	6%	/	/	-1%
Cc1nc(N2CCOCC2)nc(N2CCCC2)c1[N+](=O)[O-]	-5.8%	7%	0%	3%	2%	1%	-13%	3%
Cc1nn(-c2ccc(C(=O)O)cc2)c2c1C(=O)CC(C)(C)C2	/	0%	14%	0%	-1%	3%[46.1 µM]	/	6%
COCCNC(=O)c1cccc2c1-c1ccccc1C2=O	/	1%	-2%	?	3%	-9%	/	2%
CC(C)(C)c1ccc(OCC(=O)Nc2ccc(C(=O)Nc3ccccc3C(=O)O)cc2)cc1	/	-2%	4%	-2%	1%	?	/	-10%
CCC(Sc1nnnn1-c1ccccc1)C(=O)NC(C)c1ccccc1 (configuration not stated)	-2.2%	0%	-10%	6%	-12%	19%	-22%	14%
Cc1ccccc1C(=O)Nc1ccnn1C1CCN(CCCc2ccccc2)CC1	/	-1%	-17%	1%	15%	-3%	/	6%
COc1cccc(C2C(C#N)=C(N)OC3=C2C(=O)CCC3)c1OC(=O)c1ccco1 (configuration not stated)	1.0%	2%	-25%	-30%	6%	-18%	?	3%
CCOC(=O)c1c(C)[nH]c(C)c1S(=O)(=O)NC(C)Cc1ccco1 (configuration not stated)	/	-2%	88%[activator]	/	9%	/	/	3%
O=S(=O)(NCc1ccccc1)c1ccc(Cl)cc1	-2.6%	-6%	80%[activator]	-18%	-16%	-18%	-11%	3%
COc1ccc(NS(=O)(=O)c2c(C)[nH]c(C)c2C(=O)N2CCCCC2)cc1Cl	/	-4%	27%	-19%[46.1 µM]	5%	-12%[46.1 µM]	/	-10%
COc1ccccc1Cn1c(CNS(=O)(=O)c2ccc(CC(C)C)cc2)nc2cccnc21	-5.5%	/	9%	12%[46.1 µM]	/	/	3%	/
C=CCOc1cccc(/C=C2\C(=O)N(Cc3ccc(C)cc3)C(C)=C2C(=O)OC)c1	-7.4%	-4%	-61%	?	11%	?	21%	5%
Cc1cc(C(=O)NC2CCCCC2C)c2ccccc2n1 (configuration not stated)	/	7%	-14%	/	10%	/	/	-11%
Cc1ccc(-c2cn(C[C@H]3CC[C@@H]([C@@H]4CC[C@H](Cn5cc(-c6ccc(C)cc6)nn5)O4)O3)nn2)cc1	/	5%	-10%	/	24%	/	/	-11%
COc1cccc(C2/C(=C(\O)c3c(C)nc4c(C)cccn34)C(=O)C(=O)N2CCCN(C)C)c1OC (configuration not stated)	3.8%	1%	/	/	-5%	1%	-2%	/
CN1CCN(Cc2ccccc2C(F)(F)F)CC1	4.2%	-1%	-20%	-14%	-8%	-3%	5%	-18%
N#CC1=C(N)Nc2ncnn2C1c1ccc([N+](=O)[O-])cc1 (configuration not stated)	/	-1%	-5%	/	-3%	/	/	7%
COc1ccccc1C(=O)N1CCN(Cc2cc(=O)oc3cc(C)ccc23)CC1	-6.3%	/	-11%	-1%[46.1 µM]	/	-5%[46.1 µM]	8%	/
CC1=C(C(=O)Nc2ccc(Cl)cc2C(=O)N2CCC(C(N)=O)CC2)SCCO1	/	5%	6%	/	1%	/	/	10%
O=C1Nc2ccccc2CCC1Sc1nnc(-c2ccc(Cl)cc2)s1 (configuration not stated)	-7.5%	0%	12%	-1%	6%	-19%	5%	22%
O=C(CCSc1nc2ccccc2o1)Nc1ccccc1	/	1%	17%	/	-67%	/	/	-1%
COc1ccc(NS(=O)(=O)c2cc(NC(=O)c3cc(=O)c4ccccc4o3)ccc2OC)cc1	/	-1%	9%	20%	/	-3%[46.1 µM]	/	-9%
COc1ccc(S(=O)(=O)N2CCCC(C(=O)NCc3ccncc3)C2)cc1Cl (configuration not stated)	0.7%	-5%	/	16%	-14%	-5%	-3%	-2%
COc1ccc(NC(=O)N2CCCC2C(=O)Nc2cccc(C)c2C)cc1 (configuration not stated)	/	18%	11%	5%	1%	-3%[46.1 µM]	/	0%
SMILES	Cruzain Triton	SARS PLpro yeast	2A StopGo	LASV entry inh	NS1 inh	Marburg entry inh	Cruzain inh noDet	RE007 growth inh
Cc1[nH]c(C(=O)N/N=C/c2ccc(C(=O)O)cc2)c(C)c1C(=O)N/N=C/c1ccc(C(=O)O)cc1	-16%	-2%	-2%	12%	3%	?	3%	22%
O=C(c1cc2cc(Cl)ccc2[nH]1)N1CCN(c2ccccn2)CC1	/	-5%	6%	-3%	8%	1%	/	-12%
COc1cc(NC(=O)C2=C(N3CCOCC3)/C(=C\c3ccc(Br)cc3)CC2)cc(OC)c1OC	-3.5%	5%	?	-10%	7%	?	?	2%
CCOC(=O)CSc1nn(-c2ccccc2)c(=S)s1	/	3%	-6%	?	/	-17%[46.1 µM]	/	14%
CC(O)C(=O)NCCOCCOCCNC(=O)C(C)O (configuration not stated)	0.8%	1%	-14%	2%	17%	?	-12%	-4%
Cc1ccccc1CN1C(=O)C(O)(CC(=O)c2ccccc2)c2cc(Cl)ccc21 (configuration not stated)	-8.0%	/	3%	-4%[46.1 µM]	/	/	7%	/
CCC(=O)Nc1cccc(C2=NOC3(C2)C[C@@H](C(N)=O)N(C(=O)CC)C3)c1 (some centres not stated)	/	2%	-4%	/	2%	/	/	11%
CCOc1ccccc1NC(=O)CCNS(=O)(=O)c1cccc2nsnc12	/	0%	6%	0%	-3%	-2%[46.1 µM]	/	-4%
O=C1NCCCC1C(=O)Nc1ccccc1C(F)(F)F (configuration not stated)	-1.0%	-6%	3%	6%	-9%	3%	-2%	6%
CCOC(=O)N1CCC(=NNC(=O)COc2cccc(C)c2)CC1	-2.4%	-6%	-4%	?	2%	-9%	5%	-20%
O=P(OCC1CCCO1)(OCC1CCCO1)OCC1CCCO1 (configuration not stated)	/	/	-16%	4%[46.1 µM]	/	-6%	/	13%
